Bioassay records: PubChem BioAssay, several laboratories
MMP13 inh – human MMP13 inhibitors, primary screen, biochemical, FRET peptide cleavage; MMP-13 fTHP FRET cleavage, Mca fluorescence; inhibition, % at 4 µM; 0.07% of 65,000 active; AID 570, 2006;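 active = inhibition above the mean of compound-free control plate wells plus 3 SD, cut at about 14% in these data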;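 note: 0% = DMSO wells and 100% = wells with reference MMP-13 inhibitor after basal subtraction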
Jurkat tox 60K – cytotoxicity toward Jurkat T cells, primary screen, cytotoxicity control, cell-based, Jurkat E6.1, 60K MLSMR library | Jurkat E6.1 viability, ATP luminescence, 48 h | inhibition, % at 4 µM | 1.2% of 56,000 active;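 active = inhibition above the mean inhibition of all tested compounds plus 3 SD, cut at about 28% in these data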
JNK3 blocker – JNK3 kinase activity inhibitors, primary screen, biochemical, human, purified enzyme; Mitogen-activated protein kinase 10 (Homo sapiens), P53779; HTS; AID 746, 2007; inhibition, % at 8 µM; 0.61% of 60,000 active; in the data active = inhibition above about 17%;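 note: 0% = DMSO and 100% = reference inhibitor; many of its hits are not listed in these tables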
Target sequence (P53779 whole entry, looked up): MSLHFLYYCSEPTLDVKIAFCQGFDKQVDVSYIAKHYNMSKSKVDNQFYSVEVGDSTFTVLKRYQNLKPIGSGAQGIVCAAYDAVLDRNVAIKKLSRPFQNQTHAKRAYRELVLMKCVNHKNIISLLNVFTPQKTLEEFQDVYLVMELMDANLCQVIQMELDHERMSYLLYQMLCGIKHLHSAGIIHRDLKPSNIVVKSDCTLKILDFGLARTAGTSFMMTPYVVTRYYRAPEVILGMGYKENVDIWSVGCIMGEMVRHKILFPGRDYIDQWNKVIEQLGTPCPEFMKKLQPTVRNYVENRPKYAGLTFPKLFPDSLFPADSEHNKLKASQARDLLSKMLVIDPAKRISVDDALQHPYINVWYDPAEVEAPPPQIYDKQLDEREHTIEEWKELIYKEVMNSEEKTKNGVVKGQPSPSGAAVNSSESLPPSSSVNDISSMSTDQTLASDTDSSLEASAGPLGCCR
MKP-1 inh – MKP-1 phosphatase inhibitors, primary screen, biochemical, in vitro; Dual specificity protein phosphatase 1 (Homo sapiens), P28562; recombinant MKP-1, OMFP hydrolysis fluorescence; inhibition, %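 (compounds tested at a single concentration somewhere between 10 and 100 µM)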; 0.15% of 65,000 active; AID 374, 2006;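 active = inhibition above about 50%, limit read from the data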;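 note: 0% = DMSO max control wells and 100% = wells with enzyme stopped by NaOH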
TNAP act mid DEA – human TNAP enzyme activators, primary screen, biochemical, luminescent, intermediate phosphate acceptor level | purified TNAP, CDP-star luminescence, 100 mM DEA, 30 min; stronger effect = higher value; scale: 0 levamisole-inhibited, 1 vehicle-only enzyme | Alkaline phosphatase, tissue-nonspecific isozyme (Homo sapiens), P05186 | activation factor at 20 µM | 64,000 tested, under 10 active;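 active = activation factor of at least 2 at 20 µM, relative to controls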
HEK293 NFkB inh – inhibitors of PMA/ionomycin-induced NF-kB reporter, primary screen, antigen receptor NF-kB inhibitor project, cell-based, HEK-293 luciferase reporter, luminescence | HEK-293 NF-kB luciferase reporter | inhibition, % at 3 µM | 0.21% of 62,000 active;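 active = inhibition above the mean of all tested compounds plus 3 SD, cut at about 40% in these data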;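 note: 0% = stimulated DMSO wells and 100% = 10 µM reference inhibitor 5653914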
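Timing: 1 h pretreatment, 16 h stimulation, 37 °C; system: HEK-293 cells with stable firefly luciferase reporter driven by four HIV NF-kB elements; doses: 3 µM once, 0.30% DMSO; measured by: luciferase luminescence; control set: DMSO and 10 µM reference inhibitor; repeats: single test; reagent: PMA plus ionomycin mix as NF-kB-activating stimulus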
Cdc25B block – inhibitors of Cdc25B phosphatase catalytic domain, primary screen, biochemical, OMFP fluorescence; recombinant Cdc25B, OMFP fluorescence Ex485/Em525; inhibition, %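 (compounds tested at 10 µM final in the well)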; 0.1% of 65,000 active; AID 368, 2006; in the data active = inhibition above about 50%
Numbers without * were called inactive; nt = no result given. Some of the compounds tested. The share of hits here may be higher or lower than overall.

SMILES	MMP13 inh	Jurkat tox 60K	JNK3 blocker	MKP-1 inh	TNAP act mid DEA	HEK293 NFkB inh	Cdc25B block
CCOC(=O)N1CCC(NC(=O)CCc2nc(-c3ccc(C)cc3)no2)CC1	6	5	-1	5	0.8	16	-1
Nc1cccc(NC(=O)c2cccs2)c1	2	3	-2	5	0.9	13	-3
COc1ccccc1NC(=O)c1ccc(S(=O)(=O)N2CCCC2)cc1	2	6	-8	6	0.9	6	-15
O=C(Nc1ccncc1)c1ccccc1F	5	4	3	7	0.9	18	-15
CSc1ccc(NC(=O)NCCCN2CCN(c3ccccc3F)CC2)cc1	4	0	2	-21	1	7	-13
c1ccc2oc(-c3nn4c(Cn5cnc6ccccc65)nnc4s3)cc2c1	-11	-2	-2	-9	0.9	6	3
O=C(c1ccco1)N1CCN(c2nc3ccccc3n3nnnc23)CC1	-3	3	-2	4	0.9	6	-6
c1ccc(Nc2nc(-c3cccnc3)cs2)nc1	0	10	0	0	0.9	-54	2
c1ccc(Cc2nn3c(Cn4cnc5ccccc54)nnc3s2)cc1	-1	6	5	-4	0.9	7	-3
CCN(c1cccc(C)c1)c1ncnc2nc[nH]c12	2	4	-4	2	1	9	6
CCOc1ccccc1NC(=O)c1nc[nH]c1C(=O)Nc1ccccc1OCC	-1	-3	1	6	0.9	8	-9
COc1ccc2[nH]cc(C(=O)CN3CCN(C4CCCCC4)CC3)c2c1	-1	0	-5	-19	0.9	4	-1
COc1ccc(OC)c(S(=O)(=O)n2nnc3ccccc32)c1	-1	-3	-1	-1	0.9	13	3
Cc1ccc(-n2nnnc2SCC(=O)Nc2ccccc2N2CCCCC2)cc1C	-2	3	-2	-8	0.9	10	-4
O=S(=O)(NC1CCCCC1NCc1ccco1)c1ccccc1 (stereo not given)	-1	-1	-3	-2	0.9	3	-5
COc1ccc(C(=O)Nc2cc(OC)ccc2OC)cc1	13	1	-1	-18	1	15	-8
CCOC(=O)CSc1nc2cccnc2n1-c1ccc(F)cc1	2	2	-4	-13	1	5	-6
COc1ccc(Cl)cc1NC(=O)CSc1nnc(-c2ccncc2)n1CC1CCCO1 (stereo not given)	1	-6	-4	-16	0.9	-7	2
COc1cccc(NC(=O)c2ocnc2C)c1	-4	-3	3	7	0.9	4	-7
CSc1nnc(-c2ccco2)n1-c1ccccc1	0	2	-3	4	0.9	5	-3
COc1cccc(NC(=O)c2ccncc2)c1	3	3	-1	7	1	25	-1
COc1ccccc1CCn1cnc2c3cc(C)ccc3n(C)c2c1=O	-42	14	4	8	0.9	-2	-12
c1nc(N2CCCCC2)c2[nH]cnc2n1	-5	0	8	-1	1	15	-2
O=C(Cn1cnc2c(cnn2-c2ccc(Cl)cc2)c1=O)NCCc1ccccc1	-8	-7	-3	-10	0.9	13	-1
c1ccc2[nH]c(CSc3nnc(-c4ccncc4)o3)nc2c1	-1	-4	7	-14	0.9	24	-2

Compounds from the list above with fluorine, in the order listed:
SMILES	MMP13 inh	Jurkat tox 60K	JNK3 blocker	MKP-1 inh	TNAP act mid DEA	HEK293 NFkB inh	Cdc25B block
O=C(Nc1ccncc1)c1ccccc1F	5	4	3	7	0.9	18	-15
CSc1ccc(NC(=O)NCCCN2CCN(c3ccccc3F)CC2)cc1	4	0	2	-21	1	7	-13
CCOC(=O)CSc1nc2cccnc2n1-c1ccc(F)cc1	2	2	-4	-13	1	5	-6

In a second layout: results already given.
structure,MMP13 inh,Jurkat tox 60K,JNK3 blocker,MKP-1 inh,TNAP act mid DEA,HEK293 NFkB inh,Cdc25B block
COc1ccccc1CCn1cnc2c3cc(C)ccc3n(C)c2c1=O,-42,14,4,8,0.9,-2,-12
O=C(Cn1cnc2c(cnn2-c2ccc(Cl)cc2)c1=O)NCCc1ccccc1,-8,-7,-3,-10,0.9,13,-1
c1ccc2[nH]c(CSc3nnc(-c4ccncc4)o3)nc2c1,-1,-4,7,-14,0.9,24,-2
c1ccc(Nc2nc(-c3cccnc3)cs2)nc1,0,10,0,0,0.9,-54,2
COc1ccc(OC)c(S(=O)(=O)n2nnc3ccccc32)c1,-1,-3,-1,-1,0.9,13,3
O=C(Nc1ccncc1)c1ccccc1F,5,4,3,7,0.9,18,-15
COc1cccc(NC(=O)c2ocnc2C)c1,-4,-3,3,7,0.9,4,-7

Continuation.
SMILES	MMP13 inh	Jurkat tox 60K	JNK3 blocker	MKP-1 inh	TNAP act mid DEA	HEK293 NFkB inh	Cdc25B block
Cc1nc(C)c(C(=O)Nc2ccc(Oc3ccccc3)cc2)o1	-2	30*	-3	10	0.8	20	-8
CCc1ccc(NC(=O)N(CCN2CCOCC2)C2CCN(C(C)=O)CC2)cc1	2	6	12	9	0.9	6	-3
COc1ccc(OCc2nn3c(Cn4cnc5ccccc54)nnc3s2)cc1	0	14	8	-22	1	2	-5
Cn1c(SCCOc2ccc(Cl)cc2)nnc1-c1ccncc1	1	6	-1	-2	1.1	24	3
CC1(C)CC(=O)C(C=Nc2ccc(Cl)cn2)=C(O)C1	-7	nt	-8	-13	1.1	nt	-5
CCC(=O)Nc1ccc(C(=O)CSc2nnc(-c3cccnc3)o2)cc1	-1	3	-4	5	0.9	7	1
O=c1c2[nH]c3ccccc3c2ncn1CCC1=CCCCC1	-5	-3	4	-12	0.8	-4	-1
Cc1nc(NC(=O)CSc2nc3cccnc3n2C2CCCCC2)sc1C	-1	-1	-1	-19	0.8	6	-8
CCOC(=O)c1[nH]cnc1C(=O)Nc1ccncc1	3	-6	2	-11	1	14	-17
COC(=O)Cc1c(C)nc2nc(-c3ccco3)[nH]n2c1=O	-16	0	0	5	0.9	14	-15
c1ccc2c(c1)nnn2Cc1nnc2sc(-c3ccc4c(c3)OCCO4)nn12	-30	-8	0	22	1	3	-4
Cc1nc2ncccn2c1-c1csc(NCc2ccco2)n1	-2	3	-6	-8	0.9	28	-2
COC(=O)Cc1c(C)nc2nc[nH]n2c1=O	-1	-2	-2	-12	1	14	1
O=C(CSc1nnc(-c2ccncc2)o1)Nc1ccccc1Cl	0	13	-4	-1	1	4	4
Cc1cc(NC(=O)c2c(F)c(F)c(F)c(F)c2F)no1	1	0	-6	2	0.9	11	-2
COc1ccc2c(=O)c3c(=O)n(Cc4ccco4)c(C(C)C)nc3oc2c1	-7	3	5	-19	0.9	-1	-3
COc1cccc(C(=O)Nc2ncc3c(n2)CC(C)(C)CC3=O)c1	3	8	-3	38	0.9	12	-6
CCCNC(=O)c1ccc(SC)cc1OC	5	8	0	5	0.9	11	1
O=C(CCc1nc(-c2ccccc2F)no1)NC1CCN(Cc2ccccc2)CC1	6	7	-2	4	1	0	-10
COc1cccc(OCC(=O)Nc2ccc(OC)c(OC)c2)c1	0	2	5	-1	0.9	5	-8
CC(C)c1nc2n[nH]c(N)c2c2c1CCCC2	0	nt	0	-13	1	nt	5
COC(=O)Nc1ccc(S(=O)(=O)N2CCCCCC2)cc1	1	1	6	-1	0.9	-2	-14
CCOC(=O)CNc1nc(-c2ccncc2)nc2ccccc12	-1	-11	0	11	0.9	9	4
Cc1cccc(CSc2ncnc3nc[nH]c23)c1	10	0	-2	10	1	2	0
COc1cc(S(=O)(=O)N2CCCCC2)ccc1NC(=O)c1ccc(F)cc1	1	1	1	13	1	8	5
Cc1c(NC(=O)C2CCCN2S(=O)(=O)c2ccc(Cl)cc2)c(=O)n(-c2ccccc2)n1C (stereo not given)	2	-2	-5	-4	0.9	16	-9
